Compound activity deposited in PubChem BioAssay by National Center for Advancing Translational Sciences (NCATS).
Marburg entry inh: Marburg virus entry inhibition; Marburg virus pseudotyped entry inhibition, cell reporter; control for the full effect not named in the record; about a third of the inactives were read at about 46 µM; Potency, µM (doses to about 37.8 µM), for inactives: top-dose activity change, negative = inhibition, most hits filed as inhibitors; actives 1.8% (n = 300,000); active = well fitted inhibition curve with a large enough effect; inconclusive = small, poorly fitted or top-dose-only effect, or effect the other way; inactive = flat fitted curve, though single readings scatter; tested in HEK293 cells; about a fifth of its hits are not listed in these tables; also: % is scaled to controls: 0 for no effect and ±100 for the full control effect; luciferase read-out
StopGo reporter: lowers the luciferase signal of an FMDV 2A StopGo reporter; human cells with a luciferase reporter of 2A StopGo recoding; control for the full effect not named in the record; Potency, µM (series often up to 57.9 µM), inactives show at the top dose signal change, negative = less light; actives 1.2% (n = 410,000); AID 1159524; active = well fitted falling curve with a large enough effect; inconclusive = small, poorly fitted or top-dose-only effect; inactive = no such curve, though single readings can be large or run the other way; tested in HEK293T cells; also: % is scaled to controls: 0 for no effect and ±100 for the full control effect; nearly all actives have a fitted effect of over 45% in size; luciferase light after 4 h
RE007 growth inh: less growth of the S. pombe RE007 Vpr strain. S. pombe RE007 Vpr strain, BacTiter-Glo ATP luminescence, 24 h; control for the full effect not named in the record. Potency, µM (doses to about 92.2 µM), for the others: at the top dose activity change, negative = less growth. actives 0.21% (n = 360,000). AID 651644; active = well fitted falling curve with a large enough effect; inconclusive = small, poorly fitted or top-dose-only effect; inactive = no such curve, though single readings can be large or run the other way;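 also: % is scaled to controls: 0 for no effect and ±100 for the full control effect; nearly all actives have a fitted effect of over 50% in size; the assay follows cell death caused by Vpr and the record does not say whether a fall means rescue or toxicity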
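Fission yeast RE007 carrying one integrated HIV-1 vpr copy, seeded at OD 0.01 in PMG+AL medium with 23 nL pinned compound. Grown 24 h at 30 degrees; viability read by BacTiter-Glo luminescence after 5 min.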
LASV entry inh: blocks Lassa virus binding to or entry into cells. Lassa virus pseudotype entry inhibition, cell reporter; control for the full effect not named in the record. Potency, µM (titrated, usually from 37.9 µM), for the others: top-dose activity change, negative = inhibition, actives largely listed as inhibitors. actives 1.2% (n = 300,000). AID 540256; active means well fitted inhibition curve with a large enough effect; inconclusive means small, poorly fitted or top-dose-only effect, or effect the other way; inactive means flat fitted curve, though single readings scatter; tested in HEK293 cells; also: % is scaled to controls: 0 for no effect and ±100 for the full control effect; nearly all actives have a fitted effect of over 50% in size; luciferase read-out
Cruzain noTriton: cruzain (T. cruzi) inhibition without detergent. purified cruzain, Z-FR-AMC fluorescence, no detergent. P25779. actives 2.3% (n = 200,000). AID 1476. Potency, µM, for the others: max response, negative = inhibition, hits mostly inhibitors; active = well fitted curve in the direction sought with a large enough effect; inconclusive = small, poorly fitted or top-dose-only effect, or another doubt; inactive = no such curve, though single readings can be large; an effect the other way counts as inactive or inconclusive;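 also: plate controls were enzyme without inhibitor for no effect and buffer without enzyme for full effect; nearly all actives have a fitted effect of over 40% in size; top concentration of the series not given in the record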
Target sequence (P25779 123-467 limits assumed): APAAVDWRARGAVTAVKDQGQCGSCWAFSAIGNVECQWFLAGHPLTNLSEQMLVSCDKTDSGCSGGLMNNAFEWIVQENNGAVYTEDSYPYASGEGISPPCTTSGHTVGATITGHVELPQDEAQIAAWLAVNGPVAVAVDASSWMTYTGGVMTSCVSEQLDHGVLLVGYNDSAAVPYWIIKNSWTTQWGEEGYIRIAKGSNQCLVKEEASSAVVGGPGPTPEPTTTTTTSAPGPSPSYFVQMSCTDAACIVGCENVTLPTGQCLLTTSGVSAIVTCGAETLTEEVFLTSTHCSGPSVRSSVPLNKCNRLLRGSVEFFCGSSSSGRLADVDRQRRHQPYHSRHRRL
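Detergent-free condition (0.00005% Triton X-100) in acetate buffer pH 5.5 with DTT. 1.5 nM enzyme and compound were pre-mixed 15 min, then 2 uM Z-FR-AMC substrate added; reaction progress from fluorescence change between first and third reads (60 s).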
NS1 function inh: inhibitors of influenza NS1 protein function | AID 2326 | actives 0.4% (n = 270,000) | Potency, µM (highest dose often 46.1 µM), for inactives: at the highest dose activity, positive = more growth | S. cerevisiae slowed by influenza A NS1, growth recovery by OD600; also: actives are rising curves; nearly all actives have a fitted effect of over 50% in size
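S. cerevisiae expressing influenza A NS1, grown in glucose, washed, then diluted 1:100 into pH 6.0 -URA galactose medium with 23 nl compound. Growth recovery read as OD600; NS1-free strain serves as control.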
SARS PLpro yeast: inhibitors of SARS-CoV papain-like protease in yeast; Potency, µM (highest dose often 32.9 µM), for the others: top-dose activity, positive = growth rescue; S. cerevisiae expressing SARS-CoV PLpro, growth rescue; control for the full effect not named in the record; actives 0.19% (n = 330,000); AID 485353; also: 0% is about no effect; nearly all actives have a fitted effect of over 55% in size; growth read by luminescence after 48 h
Cruzain Triton: inhibitors of Trypanosoma cruzi cruzain with detergent; actives 0.43% (n = 200,000); Potency, µM, without a hit: max response, negative = inhibition, actives largely listed as inhibitors; purified cruzain, Z-FR-AMC fluorescence, 0.01% Triton; P25779; active = well fitted curve in the direction sought with a large enough effect; inconclusive = small, poorly fitted or top-dose-only effect, or another doubt; inactive = no such curve, though single readings can be large; an effect the other way counts as inactive or inconclusive;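 also: plate controls were neutral wells for no effect and buffer without enzyme for full effect; nearly all actives have a fitted effect of over 40% in size; top concentration of the series not given in the record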
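Cruzain (1.5 nM) preincubated 15 min at RT with compound in 100 mM sodium acetate pH 5.5, 5 mM DTT, 0.01% Triton X-100. Reaction started with 2 uM Z-FR-AMC; AMC fluorescence (ex 360/em 450 nm) change over 60 s gave rate.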
An asterisk follows results filed as active; u = inconclusive; x = no result given; & = joins results of further samples; [ ] = remark or other dose. Unless noted, calls follow the shape of the dose curve; as a rule, active means well fitted rising curve with a large enough effect; inconclusive means small, poorly fitted or top-dose-only effect; inactive means no such curve, though single readings can be large or run the other way. Potency is read from the fitted curve at half-maximal effect.

Each structure is followed by: Cruzain noTriton | RE007 growth inh | LASV entry inh | Cruzain Triton | SARS PLpro yeast | NS1 function inh | StopGo reporter | Marburg entry inh
> O=[N+]([O-])c1ccc(N2CCOCC2)cc1O
    x | 3% | -2%[46.1 µM] | x | 1% | 1% | 5% | -1%[46.1 µM]
> Cc1ccn2cc(CCNS(=O)(=O)c3ccc4c(c3)OCCO4)nc2c1
    -1% | -12% | x | 2.5% | 2% | 2% | -10% | 1%
> Cc1ccc(Oc2nnc(-c3ccc(C)cc3)c3ccccc23)cc1
    -3% | 23% | 14% | -2.9% | 22% | 5% | 8% | u
> O=C1CCCc2c1[nH]c1ccccc21
    1% | -14% | 11% | -0.3% | -25% | -54% | 11% | u
> Clc1ccccc1-c1nnc2sc(-c3cccs3)nn12
    u | 15% | -3% | -3.6% | 22µM* | -34% | 33%[activator] | 11%
> Cc1ccc(S(=O)(=O)N2CCCc3cc(NC(=O)c4ccccc4Cl)ccc32)cc1
    -20% | x | -28%[46.1 µM] | 0.1% | x | x | -4% | x
> COc1ccc(NC(C#N)c2ccc(OC)cc2)cc1 (stereo unspecified)
    -6% | -9% | -7% | 2.9% | -3% | 5% | 1% | u
> O=C(O)c1ccc(CSc2nnc(-c3ccco3)n2-c2ccccc2)cc1
    x | -6% | 2%[46.1 µM] | x | 1% | x | -3% | u
> CCSc1ncccc1C(=O)N[C@@H](CCSC)C(=O)OC
    x | 15% | -1%[46.1 µM] | x | 0% | 0% | -3% | 3%[46.1 µM]
> NC(=O)CN(c1ccc(Cl)cc1)S(=O)(=O)c1ccccc1
    10% | 1% | -2% | -1.5% | u | 4% | -23% | -1%
> CC(=O)CC1(OC(C)=O)C(=O)N(C)c2ccccc21 (stereo unspecified)
    x | -10% | -29%[46.1 µM] | x | -4% | 2% | -22% | u
> Cc1cccc(OC(C)C(=O)NCC2(N(C)C)CCCCC2)c1C (stereo unspecified)
    1% | x | 0%[46.1 µM] | 0.7% | x | x | -1% | u
> Cc1ncsc1C(=O)NCc1ccc(N2CCCC2=O)cc1
    -4% | 4% | -18%[14.3 µM] | 2.3% | 4% | -4% | -9% | u
> COc1ccc(OC)c(C(O)c2coc3ccc(O)c(CN(C)C)c23)c1 (stereo unspecified)
    2% | -8% | -14% | 6.2% | 2% | 5% | 1% | -14%
> Cc1ccc(Cl)cc1NC(=O)/C(C#N)=C\c1cn(Cc2ccc(F)cc2)c2ccccc12
    -11% | x | -1%[46.1 µM] | -0.5% | x | x | -23% | x
> COc1ccccc1C(=O)NC(CCSC)C(=O)NCc1ccncc1 (stereo unspecified)
    x | -11% | 2% | x | 1% | x | -9% | 5%
> CCOC(=O)C1=C(C)N=C2SCCC(=O)N2C1c1cccs1 (stereo unspecified)
    5% | 3% | 5% | -1.7% | -5% | -11% | -15% | 1%
> Cc1cccc(NC(=O)CSC2=NN3CCCC(=O)N=C3S2)c1C
    x | -3% | x | x | 1% | -2% | -14% | x
> O=C(/C=C/c1ccco1)Nc1cc(Cl)ccc1C(=O)O
    -11% | 10% | 10% | -15% | 11% | -22% | -3% | 7%
> O=C1/C(=C\c2cccnc2)N2CCC1CC2
    x | 0% | 2% | x | 1% | -2% | 10% | 11%[46.1 µM]
> O=[N+]([O-])c1cc(-n2cnnn2)c(O)c([N+](=O)[O-])c1
    x | 11% | x | x | 1% | 8% | -15% | x
> O=C(NCc1cccnc1)C1c2ccccc2C(=O)N1C1CCCC1 (stereo unspecified)
    -2% | 3% | x | 6.7% | 3% | 2% | -14% | x
> CC(C)CNC(=S)N1CCN(Cc2ccc3c(c2)OCO3)CC1
    x | -8% | -4%[46.1 µM] | x | 0% | 2% | -7% | -1%[46.1 µM]
> CCOc1ccc(NC(=O)CSc2nnc(Cc3cccn3C)n2-c2ccc(OC)cc2)cc1
    u | -10% | -26% | -3.6% | -2% | -31% | 16% | -14%
> CCN1C(=O)/C(=C/C=C2/SCCN2C)SC1=S
    -5% | 20% | -5% | -4.8% | 0% | -4% | -20% | x
> CCOC(=O)C1CSC(CC(=O)Nc2ccc(Cl)c(Cl)c2)C(=O)N1 (stereo unspecified)
    -11% | -6% | -14% | -3.1% | x | 15% | -28% | -2%[46.1 µM]
> Oc1[nH]c2ccccc2c1C1=NCCCC1
    -6% | 2% | 8% | -7.1% | 5% | -50% | 17% | 7%
> CCOc1ccc(CCNC(=O)c2ccc(N3CCCC3=O)cc2)cc1OCC
    -11% | -12% | -3% | 2.4% | x | 2% | u | -1%
> Cc1c(NC(=O)COC(=O)c2cc(-c3ccc(-c4ccccc4)cc3)nc3ccccc23)c(=O)n(-c2ccccc2)n1C
    -4% | -7% | 0.89µM* | -9.4% | -22% | 7% | -25% | 0.58µM*
> CCOc1ccccc1CNC(=O)CN1C(=O)CCn2nc(-c3cn(C)c4ccccc34)cc21
    u | x | u | -2.7% | x | x | -7% | x
> CCOC(=O)N1CCC(NCCNC(=O)c2ccco2)CC1
    x | 0% | x | x | 0% | u | -7% | x
> CC(=O)c1ccc(NC(=O)c2cc(Cl)nc3ccccc23)cc1
    x | 12% | -11% | x | 0% | 1% | -3% | 0%
> CCOc1ccccc1N(CC(=O)NCCSc1ccccc1)S(=O)(=O)c1ccccc1
    -2% | x | u | -4.1% | x | x | -18% | x
> OC(Cn1c2ccccc2c2ccccc21)C[n+]1cccc2ccccc21 (stereo unspecified)
    -10% | -3% | u | -0.1% | -1% | 8% | -7% | u
> COc1ccccc1NC(=S)NC1CCCCC1
    3% | -15% | u | -2.7% | 23% | -16% | 27% | u
> O=C(COc1ccccc1Br)c1ccc2c(c1)OCO2
    x | -7% | 6% | x | -5% | x | 12% | -4%[46.1 µM]
> CN(C(=O)CSc1cn(CC(=O)N2CCOCC2)c2ccccc12)c1ccccc1
    u | 13% | -1%[46.1 µM] | 0.0% | 7% | u | 5%&5% | x
> COc1cc(C(=O)N2c3ccccc3CC2C)cc(OC)c1OC (stereo unspecified)
    -3% | -3% | 2% | 6.5% | 1% | -23% | -20% | -1%
> O=C(Cn1ccc([N+](=O)[O-])n1)Nc1nc2ccccc2s1
    x | 16% | u | x | -4% | x | 12% | u
> COc1ccc(C(O)Cn2cc([N+](=O)[O-])nc2C)cc1 (stereo unspecified)
    x | 18% | 27% | x | 0% | -1% | 1% | 3%[46.1 µM]
> COc1ccc(C(C)=O)cc1Cn1nnc(-c2ccccc2Br)n1
    x | 3% | -7%[46.1 µM] | x | 1% | 0% | 0% | 12%[46.1 µM]
> Cc1cc(C)c(NC(=O)Cn2c(=O)n(Cc3ccco3)c(=O)c3ccccc32)c(C)c1
    6% | 14% | -4% | -3.4% | -1% | 1% | u | u
> CCCCn1c(N)c(N(Cc2ccccc2OC)C(=O)CN2C(=O)NC3(CCCC3)C2=O)c(=O)[nH]c1=O
    x | 27% | -9% | x | -2% | x | -18% | u
> Cc1nc2scc(-c3ccc(C(C)C)cc3)c2c(=O)n1N
    x | -14% | 12% | x | -3% | x | u | u
> CCCCNC(=O)C1CCN(C/C(C)=C/c2ccccc2)CC1
    5% | 7% | -17% | 5.9% | 1% | -4% | -6% | -39%
> COc1ccc(-c2nnn(CC(=O)N(CC(=O)NC3CCCC3)Cc3cccs3)n2)cc1OC
    12% | -13% | -23% | 1.1% | 11% | -2% | 4% | -15%
> O=C(NC(=S)Nc1ccccc1N1CCCCC1)c1cccs1
    -7% | 18% | 4% | -6.7% | 19% | -11% | u | -10%
> COc1ccccc1Nc1nccc(N(C)C)c1C#N
    x | -6% | 2% | x | 0% | 7% | 4% | u
> COC(=O)c1sc(-c2ccccc2)cc1NC(=O)Nc1ccccc1Cl
    10µM* | x | u | 3.6% | x | x | -17% | 13%[46.1 µM]
> CS(=O)(=O)c1cccc(C(=O)Nc2ccc(S(=O)(=O)N3CCCCC3)cc2)c1
    x | 5% | 1% | x | -3% | x | -14% | 4%
> COc1ccc2c(c1)CCc1c(C(=O)Nc3cc(C)n(Cc4ccc(Cl)cc4)n3)noc1-2
    13µM* | 5% | x | -3.3% | 5% | -1% | -8% | -3%
> Cc1c(C)c2c(OCC(=O)N3CCC(C(N)=O)CC3)cc3c(c2oc1=O)CCC(C)(C)O3
    x | 3% | x | x | -2% | -7% | -15% | x
> C/C(=N\NC(=O)c1ccccc1O)c1cccs1
    x | -25% | u | x | -12% | -19% | -58% | u
> CCN1CCN(c2ccc(S(=O)(=O)N3CCCCC3)cc2NC(=O)COc2ccccc2)CC1
    x | -3% | u | x | -3% | x | -26% | u
> O=C(Nc1cccc(Br)c1)c1ccc2snnc2c1
    x | -4% | x | x | -6% | 3% | 12% | x
> CCOC(=O)c1c(C)[nH]c(C)c1C(=O)COC(=O)CNC(=O)C1CCCCC1
    x | 17% | x | x | 0% | 0% | 6% | -8%[46.1 µM]
> O=C(CCN1C(=O)[C@@H]2Cc3ccccc3CN2C1=O)NCc1ccccc1
    x | 31% | x | x | 4% | 2% | 3% | x
> COC(=O)c1cc(=O)n2c(sc3ccccc32)c1C#N
    x | 1% | 4% | x | -1% | 1% | 18% | 0%[46.1 µM]
> CCOc1ccc(NC(=S)Nc2ccc3nsnc3c2)cc1
    4% | -28% | 1% | -16% | -18% | 3% | 31%[activator] | -34%
> Cc1cc(N2CCN(C)CC2)nc2ccc(NC(=O)c3ccc(C(C)(C)C)cc3)cc12
    u | x | 5%[46.1 µM] | -8.0% | x | x | u | u
> Cc1ccc(S(=O)(=O)N2CCC(=O)N(CCOCc3ccccc3)CC2)cc1
    0% | -17% | 1% | 0.7% | -15% | -30% | -17% | 2%
> CSc1ncccc1C(=O)NCCc1ccccc1F
    x | 19% | 22%[46.1 µM] | x | -1% | 2% | 0% | -3%[46.1 µM]
> COC(=O)c1cc(CNC(=O)CCCSc2ccccc2)ccc1OC
    x | 10% | 18%[46.1 µM] | x | 16% | 1% | -11% | 3%[46.1 µM]
